HIV Env fusion = inhibitors of HIV-1 Env-driven cell-cell fusion, primary screen, HeLa-JRFL effector, CEM21 target cells, luciferase; inhibition, % at 12.3 µM; actives 1.1% (n = 360,000); AID 651610, 2012;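 active means mean replicate inhibition score of at least 50 and every replicate individually at or above 50; inconclusive means only one of the two criteria met; inactive means mean below 50 and not all replicates reaching 50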;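 further: 0% = plate neutral controls and 100% = maraviroc near 300 nM; one replicate is shown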
Rce1 inhib = yeast Rce1p protease inhibitors, primary screen, biochemical, fluorescence, cell-free homogeneous; calls only; yeast membranes, quenched prenylated peptide cleavage fluorescence; actives 0.27% (n = 290,000);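 active means fall in fluorescence gain of 50% or more versus controls, with final raw signal at or below 3038400; inconclusive means same 50% fall but final raw signal above 3038400; inactive means fall in fluorescence gain under 50%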;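 further: plate controls were neutral control wells for no effect and wells lacking membranes for full effect; tested at 10 µM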
Target sequence (Q03530 whole entry, looked up): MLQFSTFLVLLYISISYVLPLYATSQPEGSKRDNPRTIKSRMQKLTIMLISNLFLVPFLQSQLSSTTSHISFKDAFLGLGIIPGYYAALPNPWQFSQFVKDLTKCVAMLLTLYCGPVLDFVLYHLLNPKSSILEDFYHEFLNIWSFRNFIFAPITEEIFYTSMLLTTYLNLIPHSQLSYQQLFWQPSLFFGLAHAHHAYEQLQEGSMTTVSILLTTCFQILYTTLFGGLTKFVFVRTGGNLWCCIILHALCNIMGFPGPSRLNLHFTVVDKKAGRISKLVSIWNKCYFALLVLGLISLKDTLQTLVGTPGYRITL
CSC inhib = cancer stem cell viability inhibitors, primary screen, luminescence. actives 1.1% (n = 300,000). cancer stem cell-like cells viability. AID 2717, 2010. inhibition, % at 7.5 µM;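 active means mean at 75% or more and at least half the replicates too; inconclusive means mean and replicates disagree; tested in HMLE shEcad cells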;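 further: 0% = median of negative and 100% = median of positive control wells; the first replicate is given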
PABP FP inh = PABP poly(A) RNA binding inhibitors, primary screen, biochemical, fluorescence polarization, uHTS. actives 1% (n = 290,000). inhibition, % at 35 µM. Polyadenylate-binding protein 1 (Homo sapiens), P11940;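 active means 50% or more with normal probe brightness, or confirmed in later tests; inconclusive means above 50% with abnormal brightness, or retests that disagree; inactive means below 50% or failed in later tests; about a fifth of its hits are not listed in these tables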;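 further: calls also rest on retests at 20 µM and on dose response follow-up; controls were probe without protein and protein plus probe with vehicle; some compounds called inactive have numbers as strong as hits; many hits fall short of the cut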
MT1-MMP act inh = blockers of MT1-MMP proenzyme processing, primary screen, HT1080 RFP-PRO-GFP cells, GFP/RFP fluorescence; GFP/RFP ratio change, % at 20 µM; actives 0.061% (n = 360,000); Matrix metalloproteinase-14 (Homo sapiens), P50281; GFP/RFP ratio fluorescence, overnight; percent of plate control window, DMSO zero;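 active means GFP/RFP ratio change of at least 30% with cell ATP level not reduced by more than half and red fluorescence within 50% of control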; further: strong numbers were not always called active
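Test system: HT1080 cells expressing an RFP-PRO-GFP fluorescent reporter construct / Compound dosing: single-point 20 µM compound, 1% DMSO / Schedule: cells overnight before dosing, compound overnight, 37 °C, 5% CO2 / Evaluation: GFP/RFP fluorescence ratio / Control set: DMSO and RFP-L50D-GFP cell wells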
UUG fidelity = modulators of yeast start codon fidelity, primary screen, whole organism, S. cerevisiae, single point, plate reader; AID 602363, 2012; activity score, % at 18.7 µM; actives 0.13% (n = 350,000); S. cerevisiae UUG-firefly luciferase reporter, luminescence/redox ratio;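 active means replicate mean at a twofold rise or more, about +100% in these data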;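 further: firefly luciferase made from a UUG start codon reports start codon fidelity; reporter light over untreated wells divided by growth signal over untreated wells; some hits fall short of that in this replicate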
eIF4H inh = human eIF4H binding inhibitors, primary screen, translation initiation inhibitor project, biochemical, uHTS, fluorescence polarization; actives 0.94% (n = 290,000); inhibition, % at 35 µM; Eukaryotic translation initiation factor 4H (Homo sapiens), Q15056; AID 2012, 2009; eIF4H fluorescence polarization binding assay;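 active means 50% or more with normal probe brightness, or confirmed in later tests; inconclusive means above 50% with abnormal brightness, or retests that disagree; inactive means below 50% or failed in later tests; about a fifth of its hits are not listed in these tables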;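 further: calls also rest on retests at 20 µM and on dose response follow-up; 0% = protein and probe with vehicle and 100% = probe without protein; strong numbers were not always called active; many hits fall short of the cut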
eIF4H inh retest = further read-out of eIF4H inh, marked with its call; inhibition, %; compound at 20 µM; confirmation average;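 mean of two retest wells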
PABP FP inh retest = recorded beside PABP FP inh, whose call it bears; inhibition, %; compound at 20 µM; confirmation repeats;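 mean of two retest wells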
MT1-MMP act inh RFP = also measured in MT1-MMP act inh; calls as there; RFP signal change, %; measured here: RFP expression control read;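 0 = vehicle wells; hits needed this value within 50% of zero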
Numbers without * were called inactive; i = inactive; ? = inconclusive; nt = no result given.

SMILES | HIV Env fusion | Rce1 inhib | CSC inhib | PABP FP inh | MT1-MMP act inh | MT1-MMP act inh RFP | UUG fidelity | eIF4H inh | others
C/C(=N/NC(=O)c1ccc(C)s1)c1cccc(NC(=O)COc2ccc(Cl)cc2C)c1 | -23.0 | i | 3.9 | -10.5 | 6.5 | -0.5 | -24.3 | -7.2
COc1ccc(-c2nnc(N)s2)cc1OC | -39.4 | nt | nt | nt | 1.6 | 3.9 | -15.1 | nt
CNC(=O)c1cc2ccc(OC)cc2oc1=O | nt | i | 0.7 | 12.4 | 2.6 | 7.2 | -2.8 | 11.6
COC(=O)c1ccc(OC)c(CSc2nnc(COc3cccc(C)c3)o2)c1 | 26.2 | i | 40.3 | -2.5 | 2.0 | -3.1 | -17.6 | -2.7
COC(=O)c1ccc(-n2nnnc2SCC(=O)NCc2cccc(C(=O)O)c2)cc1 | 24.0 | i | -3.7 | 2.2 | 3.2 | 3.9 | 13.4 | -1.8
Cc1cc2cc(CNC(=O)c3ccco3)ccc2n1C | nt | i | 5.4 | 33.2* | 21.6 | 22.2 | -7.3 | 53.4* | eIF4H inh retest=65.8*;PABP FP inh retest=79.9*
Cn1c(CNC(=O)Nc2ccccc2)nnc1SCc1ccccc1 | -54.7 | nt | -12.2 | 9.7 | 0.7 | -0.3 | -13.4 | -9.2
Cc1cnc(NC(=O)c2c(Cl)cnn2C)s1 | -122.5 | i | -20.1 | -12.6 | -0.9 | 3.7 | -15.5 | -12.7
CC(C)Cn1c(=S)[nH]c2cc(C(=O)NCc3ccccc3F)ccc2c1=O | 2.1 | nt | -4.9 | nt | 3.5 | -5.9 | -17.8 | nt
COc1ccc(CNC(=O)C/C(C)=N/NC(=O)Cc2ccc(OC)cc2)cc1 | -1.3 | i | -6.3 | 1.2 | 2.7 | 6.9 | nt | -4.5
O=C(NCc1ccccc1)c1ccc(NC(=O)C2CCCCC2)cc1 | -6.7 | nt | nt | nt | 6.1 | 6.2 | -16.9 | nt
Cn1c(CNC(=O)CCNC(=O)c2cccc(F)c2)cc(=O)n(C)c1=O | -0.6 | i | -7.3 | -0.1 | -4.9 | 2.1 | -29.1 | -0.2
CC(=O)Nc1ccc(OC(=O)c2ccco2)cc1 | -6.2 | i | -2.2 | -10.8 | 5.3 | 6.5 | nt | 1.9
CCCCC(=O)Nc1ccc2c(c1)nc(CN1CCN(C(=O)OCC)CC1)n2C | 2.3 | i | 7.3 | 8.7 | 0.1 | -1.5 | 3.5 | -4.4
O=[N+]([O-])c1cc(Cl)ccc1NCCNS(=O)(=O)c1ccccc1 | -11.1 | i | 0.4 | 4.5 | 6.5 | -1.6 | -3.0 | -4.5
CCc1cc(=O)oc2cc(C)c3c(C)coc3c12 | -42.2 | i | -15.7 | -6.2 | 0.2 | 4.1 | -3.5 | -5.3
O=C(COc1ccccc1F)Nc1nc(-c2ccccn2)cs1 | -3.7 | nt | 25.0 | nt | 1.5 | 3.8 | nt | nt
O=C(O)/C(=C\c1ccc2ccccc2c1)c1cccc2ccccc12 | -61.0 | i | 40.6 | nt | 2.0 | 1.5 | nt | nt
Cc1[nH][nH]c(=O)c1C(c1c(C)[nH][nH]c1=O)c1cn(Cc2ccc(F)cc2)c2ccccc12 | nt | nt | 27.7 | 9.8 | -0.6 | 2.5 | -18.8 | 6.0
O=C(NNC(=O)c1cc2ccccc2cc1O)Nc1ccc(Br)cc1 | 8.3 | i | 22.4 | 6.7 | 4.3 | 6.2 | -6.0 | 3.5
Cc1ccc(C(=O)Oc2coc(CSc3nnc(NC(=O)C4CC4)s3)cc2=O)cc1C | -19.6 | nt | nt | 7.9 | 1.3 | -4.9 | nt | 6.2
O=c1ccnc(SCCC(F)=C(F)F)[nH]1 | -11.4 | i | -3.1 | 0.1 | 3.3 | 8.3 | nt | 12.0
COc1ccc(NC(=O)Cn2nnc(-c3ccccc3NS(=O)(=O)c3ccc(OC)cc3)n2)cc1 | nt | i | 58.3 | 10.2 | -10.1 | -15.4 | -24.5 | 1.1
Cc1ccccc1NC(=O)c1sc2nc3c(c(-c4ccco4)c2c1N)CCCC3 | -103.9 | i | 67.4 | 13.5 | -3.2 | -5.4 | -8.9 | 20.2
COc1ccc(N(CC(=O)Nc2ccc(C)cc2C)S(=O)(=O)c2ccccc2[N+](=O)[O-])c(OC)c1 | 31.2 | i | 0.5 | -1.0 | -4.4 | -1.9 | nt | 11.2
Fc1cc2nc(-c3ccncc3)[nH]c2cc1F | nt | i | -1.9 | -1.7 | 4.7 | -0.9 | -17.9 | -3.9
CC(=O)Nc1ccc(/C(C)=N/NC(=O)c2ccc(F)cc2)cc1 | -2.3 | i | 8.1 | -4.0 | 1.9 | 5.2 | nt | 4.4
Cc1ccc(NC(=O)c2cc(C(=O)Nc3ccc(C)cc3)n(C)n2)cc1 | -0.6 | i | -6.8 | nt | -3.1 | -1.5 | nt | nt
COc1ccc(CN(C)CCCn2ccc(N)nc2=O)cc1OC | 6.7 | nt | nt | nt | 5.7 | 6.4 | -30.4 | nt
Cc1ccc(S(=O)(=O)NCC(=O)OCc2csc(CC(=O)Nc3ccccc3C)n2)cc1C | 4.8 | nt | nt | nt | 0.8 | 2.2 | -8.7 | nt

Brought forward from above: 2 compounds, then new ones.
SMILES | HIV Env fusion | Rce1 inhib | CSC inhib | PABP FP inh | MT1-MMP act inh | MT1-MMP act inh RFP | UUG fidelity | eIF4H inh | others
COc1ccc(CN(C)CCCn2ccc(N)nc2=O)cc1OC | 6.7 | nt | nt | nt | 5.7 | 6.4 | -30.4 | nt
Cc1ccc(S(=O)(=O)NCC(=O)OCc2csc(CC(=O)Nc3ccccc3C)n2)cc1C | 4.8 | nt | nt | nt | 0.8 | 2.2 | -8.7 | nt
O=C(Nc1cccc(Cl)c1)Nc1nnc(-c2ccncc2)s1 | 56.6* | i | 65.2 | -1.1 | -42.1 | -40.9 | nt | 34.9
COc1ccc(CCC(=O)NCCS(=O)(=O)N2CCN(c3ccc(F)cc3)CC2)cc1 | 1.4 | i | 6.3 | nt | 4.4 | -3.0 | 10.0 | nt
O=C(CSc1nnnn1-c1cccnc1)Nc1cccc(Cl)c1 | 3.8 | i | 4.4 | 16.8 | 4.3 | 5.5 | -20.5 | 9.9
COC(=O)c1ccc(N2CCS(=O)(=O)CC2)cc1 | -0.4 | i | -3.4 | 1.1 | -3.5 | 5.4 | -12.7 | -5.6
O=C(COC(=O)c1ccc([N+](=O)[O-])cc1Cl)NCc1ccco1 | nt | nt | -3.7 | nt | 1.1 | 1.0 | -1.9 | nt
COc1cccc2sc(=NC(=O)CS(=O)(=O)c3ccc(Cl)cc3)n(C)c12 | 4.5 | i | -8.3 | nt | -1.5 | -14.2 | nt | nt
COc1ccc(C(=O)NNC2=CC(=O)CC(C)(C)C2)cc1 | -29.3 | i | -4.4 | -13.7 | 3.4 | 5.2 | -6.1 | 5.8
CC1CC(=O)c2cnc(Nc3cccc(C(F)(F)F)c3)nc2C1 (centres undefined) | nt | nt | -5.0 | -6.5 | 3.4 | -1.8 | -13.8 | -2.3
CCCN1CN(Cc2ccco2)c2nc3ccccc3n2C1 | -102.9 | nt | 6.7 | -4.8 | 4.1 | 5.2 | -6.6 | -11.1
Cc1cc(NC(=O)CSCC(=O)N(c2ccc(F)cc2)C(C(=O)NC2CCCCC2)c2ccc(O)c(O)c2)no1 (centres undefined) | ? | i | 1.1 | 2.2 | 7.8 | -2.5 | -9.9 | 16.7
CCOC(=O)c1ccccc1N1C(=O)CSC1=S | nt | i | 3.8 | -0.2 | 30.1* | 29.7* | 1.4 | -1.2
Cc1ccc(OCc2nnc(SCC(=O)O)n2-c2ccccc2)cc1 | 9.8 | i | 8.6 | nt | 0.8 | 0.2 | -24.8 | nt
Cc1nc(-c2cccc(Br)c2)ccc1C(=O)O | -4.9 | i | 3.4 | 7.0 | -3.0 | -2.4 | nt | 1.1
Cc1ccc(NC(=O)CN2CCN(Cc3ccccc3)CC2)cc1F | -1.3 | i | -7.3 | 10.5 | 3.1 | 1.5 | -14.5 | -11.1
O=C(NC1CCCCC1)c1ccc(Cn2cc(Cl)cn2)cc1 | -28.3 | i | -13.3 | -7.8 | 2.6 | 2.6 | nt | -2.1
CCCNC(=O)C1CC(=O)N(c2ccc(OCc3ccccc3)cc2)C1 (centres undefined) | -90.7 | nt | nt | nt | -0.7 | -2.1 | -19.0 | nt
Cc1cc(C)c(C)c(OCCCCN2CCCCC2)c1 | 11.1 | i | 30.1 | 6.8 | 0.8 | 4.8 | -23.1 | 10.8
O=C1CCCC2=C1C(c1ccc3c(c1)OCO3)c1c([nH]n(-c3ccccc3)c1=O)N2 (centres undefined) | -29.4 | i | -5.9 | 25.4 | 5.7 | 2.9 | -17.1 | -4.8
COc1cc(/C=N/NC(=O)c2ccc(COc3cc(C)ccc3C(C)C)cc2)cc(OC)c1O | nt | i | 21.7 | -6.1 | 11.2 | -3.5 | nt | -7.1
COc1ccc(C(=O)Cc2cnn(-c3ccccc3)c2)c(O)c1 | nt | i | -4.5 | -16.6 | 0.3 | -1.2 | nt | -5.7
CCCCN(C(=O)CC1CCCC1)c1c(N)n(Cc2ccccc2)c(=O)[nH]c1=O | -15.4 | nt | nt | nt | 0.1 | -0.5 | -4.6 | nt
O=C(NCCc1ccccc1)c1ccc(=O)oc1 | -25.2 | i | 11.7 | 7.2 | 0.1 | -2.6 | -5.9 | 5.5
Cc1ccc(CS(=O)Cc2ccc(C(=O)NCc3ccccc3Cl)o2)cc1 (centres undefined) | -8.1 | i | -10.0 | 0.9 | -2.6 | -0.4 | 7.2 | -14.3
Cc1ccc(S(=O)(=O)N2CCCC2C(=O)OCC(=O)Nc2ccc3c(c2)OCO3)cc1 (centres undefined) | -84.8 | i | -8.5 | 2.2 | 2.8 | 3.0 | 0.1 | -2.1
Cc1ccc(NC(=O)C(C)N2CCCc3ccccc32)cc1S(=O)(=O)N1CCOCC1 (centres undefined) | -106.9 | nt | nt | nt | -1.0 | -0.6 | -12.7 | nt
Cc1csc(NC(=O)CSc2nnc(-c3ccccc3)o2)n1 | nt | i | 34.1 | -5.4 | 4.4 | 4.3 | -18.2 | 3.0
CCOc1cc(/C=N/Nc2nncc(-c3ccccc3)n2)ccc1O | -0.2 | i | 8.9 | -16.8 | 10.9 | 0.9 | nt | -11.4
CCN(CC)CCNC(=O)C(=O)NCC1OCCN1S(=O)(=O)c1ccc2c(c1)OCCO2 (centres undefined) | -2.2 | i | 0.0 | 0.1 | -0.5 | 2.1 | nt | -6.6
O=[N+]([O-])c1ccccc1OCCCN1CCOCC1 | nt | i | -14.4 | -1.1 | 1.7 | 4.3 | nt | -4.8
Cc1nc2ncnn2c(C)c1CCC(=O)N1CCN(Cc2ccccc2)CC1 | -211.7 | i | -3.9 | 7.0 | 1.8 | 3.0 | -15.8 | 1.6
C/C(=N\NC(=O)C(C)Oc1ccc([N+](=O)[O-])cc1)c1ccccn1 (centres undefined) | 3.9 | i | 52.5 | 10.4 | 10.6 | 2.7 | nt | 12.7

Screening data (PubChem)
